Compound activity as filed in PubChem.
MgrA DNA FP: alters Staphylococcus aureus MgrA binding to DNA | inhibition, %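 (about 10 µg/mL by stock and volumes)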 | hit rate 0.13% among 84,000 | fluorescence polarization | AID 602314;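 active = above 50% in either of two replicates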;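 note: 0% = protein plus DNA without compound and 100% = DNA alone without protein; higher means less MgrA bound to DNA so lower polarization; one replicate is shown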
Sa helicase inh: blocks Staphylococcus aureus DNA helicase; purified S. aureus helicase, fluorescence unwinding assay; about half of the hits fall short of the stated cut; inhibition, %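 (tested at about 80 µM)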; hit rate 0.05% among 120,000; AID 485395;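 active = both duplicates at 50% or more, or one of them with a favoured structure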;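 note: 0% = mean of negative control wells and 100% = mean of positive control wells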
* marks the source's active call; other numbers are inactive results; x = not tested or not shown.

The first 17 entries, to show the layout:
SMILES	MgrA DNA FP	Sa helicase inh
CCOc1ccc(NC(=O)c2ccnc(N3CCC(C(=O)N4CCOCC4)CC3)c2)cc1	13.6	10.0
CC(C)Sc1nc2ccccc2n1CC(=O)O	x	20.0
CN(C)C(=O)NCc1ccc(Cl)cc1	4.8	8.0
c1ccc(CNc2ncnc3c2cnn3-c2ccccc2)cc1	x	2.0
Sc1ccc2oc3ccc(S)cc3c2c1	-11.0	2.0
COc1ccccc1N=Cc1c(O)n(-c2ccccc2OC)c(=O)[nH]c1=O	-3.5	8.0
O=S(=O)(CS(=O)(=O)c1cccc(Cl)c1)c1cccc(Cl)c1	x	-2.0
Cc1cc(C)n(Cc2c(C(=O)O)noc2C)n1	0.8	6.0
CCC(Sc1nnnn1-c1ccccc1)C(=O)Nc1sc2c(c1C#N)CCCC2 (stereo not given)	1.9	2.0
OC1(C(F)(F)F)CC(c2ccc3ccccc3c2)=NO1 (stereo not given)	2.1	x
CC(C)c1ccc2c(c1)C(=O)NC(C)(C)C2	x	-1.0
Cc1cc(NC(=O)CSc2cn(C)c3ccccc23)no1	x	-15.0
CC(CN1CCN(Cc2ccccc2)CC1)N(C(=O)c1ccc(C(C)(C)C)cc1)c1ccccn1 (stereo not given)	2.4	x
CCc1ccc(C2=NN(C(=O)CCC(=O)O)C(c3ccco3)C2)cc1 (stereo not given)	x	5.0
COc1ccc(-c2cc3nc(C4CCN(C(=O)OC(C)(C)C)CC4)c(C(=O)O)cn3n2)cc1	x	5.0
COc1cccc(N2CC(=O)N(N)CC2=O)c1	x	1.0
COC(=O)c1ccc2c(=O)n(CCO)c(SCCOc3ccccc3C)nc2c1	x	-6.0

Main list, previewed entries included:
SMILES	MgrA DNA FP	Sa helicase inh
CCOc1ccc(NC(=O)c2ccnc(N3CCC(C(=O)N4CCOCC4)CC3)c2)cc1	13.6	10.0
CC(C)Sc1nc2ccccc2n1CC(=O)O	x	20.0
CN(C)C(=O)NCc1ccc(Cl)cc1	4.8	8.0
c1ccc(CNc2ncnc3c2cnn3-c2ccccc2)cc1	x	2.0
Sc1ccc2oc3ccc(S)cc3c2c1	-11.0	2.0
COc1ccccc1N=Cc1c(O)n(-c2ccccc2OC)c(=O)[nH]c1=O	-3.5	8.0
O=S(=O)(CS(=O)(=O)c1cccc(Cl)c1)c1cccc(Cl)c1	x	-2.0
Cc1cc(C)n(Cc2c(C(=O)O)noc2C)n1	0.8	6.0
CCC(Sc1nnnn1-c1ccccc1)C(=O)Nc1sc2c(c1C#N)CCCC2 (stereo not given)	1.9	2.0
OC1(C(F)(F)F)CC(c2ccc3ccccc3c2)=NO1 (stereo not given)	2.1	x
CC(C)c1ccc2c(c1)C(=O)NC(C)(C)C2	x	-1.0
Cc1cc(NC(=O)CSc2cn(C)c3ccccc23)no1	x	-15.0
CC(CN1CCN(Cc2ccccc2)CC1)N(C(=O)c1ccc(C(C)(C)C)cc1)c1ccccn1 (stereo not given)	2.4	x
CCc1ccc(C2=NN(C(=O)CCC(=O)O)C(c3ccco3)C2)cc1 (stereo not given)	x	5.0
COc1ccc(-c2cc3nc(C4CCN(C(=O)OC(C)(C)C)CC4)c(C(=O)O)cn3n2)cc1	x	5.0
COc1cccc(N2CC(=O)N(N)CC2=O)c1	x	1.0
COC(=O)c1ccc2c(=O)n(CCO)c(SCCOc3ccccc3C)nc2c1	x	-6.0
COC(=O)c1c(-c2ccccc2)csc1-n1c(C)ccc1C	x	-4.0
O=C(COC(=O)C1(c2ccc(F)cc2)CCCC1)NC1CCCC1	0.2	-3.0
Cc1ccc(Oc2ncnc3sccc23)cc1	3.5	6.0
O=C(NCc1ccc(F)cc1)C1CC(=O)N(Cc2cnn(-c3ccccc3)c2-n2cccc2)C1 (stereo not given)	x	-6.0
O=C1c2cccc(OCc3ccc(Cl)cc3)c2CCN1Cc1cccnc1	x	2.0
CC1(C)C2CCC1(C)C(NC(=O)c1cccc(C(F)(F)F)c1)C2 (stereo not given)	-0.1	x
O=C(Cn1cnnn1)Nc1ccc(Cl)c(Cl)c1	x	3.0
Nc1ccccc1NC(=S)Nc1cccc(C(F)(F)F)c1	-0.3	x
CN(c1ccc(C(=O)CSc2nnc(-c3ccco3)n2C2CCCCC2)cc1)S(C)(=O)=O	x	-14.0
COc1ccccc1N1C(N)=NC(N)=NC12CCCCC2	2.5	11.0
O=C(COC(=O)c1ccco1)NCc1ccccc1	x	-4.0
OC1CCSc2ccc(Cl)cc21 (stereo not given)	x	0.0
CNC(=O)c1ccc2c(c1)NC(=O)c1ccccc1S2	0.8	5.0
CN(CC(=O)N1CCc2ccccc21)c1ccccc1	0.2	5.0
CCOC(=O)N1CCN(C(=O)CSc2ccc(C)cc2)CC1	x	2.0
COc1ccc(NC(=O)Cn2ncc3ccccc32)cc1OC	x	5.0
CCCC(CCC)C(=O)Nc1cc(C)c2c(=O)oc3ccccc3c2n1	x	-3.0
O=S(=O)(c1cc(Cl)sc1Cl)N1CCN(CCc2ccccc2)CC1	-2.6	x
C=CCN1C(=O)C2C(C(=O)NC3CCCCC3C)C3(C)C=CC2(O3)C1C(=O)NC(C)(C)C (stereo not given)	0.3	3.0
S=C(c1cn(CCOc2ccccc2)c2ccccc12)N1CCCC1	1.2	-6.0
C=CCSc1nnc(NC(=O)c2ccc(S(=O)(=O)N3CCCCC3)cc2)s1	0.9	7.0
COc1ccc(Sc2nc(C)c(-c3csc(C)n3)cc2C#N)cc1	-1.3	x
Cc1cc2c(C(C)C)c(O)c(O)c(C=O)c2c(O)c1-c1c(C)cc2c(C(C)C)c(O)c(O)c(C=O)c2c1O	3.8	x
CCOC(=O)CSc1ccc(C(=O)O)c2c(C(=O)O)cccc12	-1.7	x
COc1cc(/C=N/S(=O)(=O)c2ccccc2)cc(OC)c1O	x	30.0
CCOC(=O)c1cccc(N2C(=O)C3C4C=CC(CC4)C3C2=O)c1 (stereo not given)	-3.2	x
O=C(Oc1ccccc1)c1ccc(=O)oc1	21.0	20.0
CC(C)N=c1scc(-c2ccco2)n1/N=C/c1ccccc1O	x	7.0
O=C(Nc1ccc(-c2cn3cccnc3n2)cc1)c1ccco1	x	24.0
O=C(Nc1nnc(C2=COCCO2)o1)c1ccc(Cl)cc1	x	22.0
CNC1CCCc2ccccc21 (stereo not given)	x	-119.0
CC(=O)NCCc1ccc(C(=O)CSc2nnc3n2CCCCC3)cc1	x	16.0
COCCN1C(=O)/C(=C/N2CCN(S(=O)(=O)c3ccc(Cl)cc3)CC2)C(=O)NC1=S	x	-13.0
Cc1sc2nc(C(C)(C)C)oc(=O)c2c1C	-0.8	x
OC1(C2(O)CCCCC2)CCCCC1	2.0	2.0
O=C(Oc1ccc([N+](=O)[O-])cc1)c1c(Cl)cccc1Cl	-1.5	x
CC(C)(/C=N/O)/[N+]([O-])=C/c1ccccc1	2.0	x
O=C(Nc1ccccn1)C1COc2ccccc2O1 (stereo not given)	5.5	16.0
Cc1cccc(S(=O)(=O)N2CCCC2)c1	-1.1	3.0
O=C(c1cnn2ccccc12)N(Cc1ccco1)C1CCCC1	x	9.0
Clc1ccc(CSc2nnc(-c3ccncc3)s2)cc1	-2.5	x
CNC(=O)c1ccc(N2CCc3ccccc32)s1	x	-8.0
CCOC(=O)c1cc(NC(=O)c2ccc(OC)cc2)c(=O)n2c1oc1ccccc12	x	33.0
(more compounds)
SMILES	MgrA DNA FP	Sa helicase inh
C=CCSc1c2c(c(C#N)c3nc4ccccc4n13)CCC2	1.5	x
Cc1[nH]c2ccccc2c1C(Nc1ccccc1C(F)(F)F)c1ccccn1 (stereo not given)	3.5	6.0
CC12CN(Cc3ccccc3)CC(C)(CN(Cc3ccccc3)C1)C2=NO	0.2	16.0
CC1(C)CCc2cc(-c3ccn(C(=O)c4ccc(Cl)cc4)n3)ccc2O1	1.5	x
CC1CCc2cc(F)ccc2N1Cc1nnc(-c2ccccc2)o1 (stereo not given)	1.1	0.0
Cc1ccccc1CO/N=C\c1[nH]ncc1Br	x	-10.0
COc1ccc2c(c1)c1nc(SCC(=O)c3ccccc3)n(CCO)c(=O)c1n2C	x	0.0
COC(=O)COc1ccc(/C=C2\C(=O)NC(=O)N(c3ccc(OC)cc3)C2=O)cc1OC	0.7	x
N#Cc1c(-c2ccc(Cl)cc2)csc1S(=O)C1CCCCC1 (stereo not given)	-1.8	x
Nc1c(-c2nc3ccccc3[nH]2)nnn1Cc1ccccc1	0.3	5.0
CSc1nc2ccccc2n1C	0.3	8.0
FC(F)(F)CCSc1nnc(-c2cccs2)n1-c1ccccc1	x	5.0
O=c1oc2ccc(NS(=O)(=O)c3cccc4ccccc34)cc2s1	2.1	4.0
O=C(NCC1CC2CCC1C2)c1n[nH]c(=O)c2ccccc12 (stereo not given)	2.4	-7.0
Cc1ccccc1CN1CCN(C2c3ccccc3-c3ccccc32)CC1	-0.2	6.0
CCc1ccc(-c2cn3c(n2)sc2cc(C(=O)O)ccc23)cc1	x	-17.0
CC(=O)n1c(=O)n(C(C)=O)c2cc(Br)ccc21	x	3.0
COC(=O)C1=C(C)NC2=C(C(=O)CC(c3ccc(OC)cc3)C2)C1c1ccc(OC)c(Br)c1 (stereo not given)	1.7	x
O=C(Oc1ccc2oc3ccccc3c2c1)c1ccc(=O)[nH]c1	x	-21.0
O=C(O)/C=C/C(=O)Nc1nnc(-c2ccccc2F)s1	-4.2	4.0
Cc1nn(CC(=O)N2CCc3ccccc32)c(C)c1S(=O)(=O)N(C)C	x	-4.0
COC(=O)CN1C(=O)c2cccnc2Oc2ccc(C)cc21	-0.6	-4.0
COc1ccc(-c2cc(C(=O)NCCCN3CCOCC3)no2)cc1	x	-6.0
Cc1cc(=O)oc2cc(OC(=O)C(C)N3C(=O)CCC3=O)ccc12 (stereo not given)	13.6	7.0
Cc1ccccc1NC(=O)NCCc1ccccc1	0.4	x
COc1ccc(-n2c(-c3ccc(Cl)cc3)n[nH]c2=S)cc1	-1.6	x
Oc1ccc(Cl)cc1C1=NOC(O)(C(F)(F)F)C1 (stereo not given)	x	28.0
NC(=O)c1cccn1Cc1ccc(Cl)cc1	0.8	6.0
CC(Nc1nc(N2CCCC2)nc2ccccc12)c1ccccc1 (stereo not given)	x	-35.0
CC(C)(C)C(=O)n1nccc1-c1ccc(-c2cccs2)s1	-2.4	x
O=S(=O)(c1ccccc1)N(Cc1ccc(Cl)cc1)c1nccs1	x	-6.0
CCOC(=O)/C=C(/Nc1ccccc1SC)c1ccccc1	-1.9	x
S=C(Nc1ccc(Oc2ccccc2)cc1)N(CCN1CCCCCC1)Cc1ccco1	x	-6.0
O=C(NC1CCN(C(=O)c2cccnc2Oc2ccccc2)CC1)c1ccccc1	-0.1	x
COn1c(=O)c(-c2cccc(C(F)(F)F)c2)[n+]([O-])c2ccccc21	5.3	7.0
CCNc1ccc2c(Cl)cc(=O)oc2c1	1.6	5.0
Oc1ccc(CNc2ccccc2Cl)c2cccnc12	6.1	0.0
O=S(=O)(NCCN1CCCC1)c1cc2ccccc2s1	-1.1	x
NC(=S)NC1CC2C=CC1C2 (stereo not given)	-1.1	x
Cc1ccc2c(c1)c1c(n2CC(O)CNCC2CCCO2)CCCC1 (stereo not given)	x	-19.0
CCOc1ccc2nc(SC(C)C(N)=O)[nH]c2c1 (stereo not given)	x	13.0
COc1cc(C2C3=C(CCCC3=O)OC3=C2C(=O)CCC3)cc(Br)c1O	1.6	-3.0
CCOC(=O)C(C)Sc1nc2c(c(=O)[nH]c(=O)n2C)n1CC(O)COc1ccc(Cl)cc1 (stereo not given)	x	-2.0
COc1ccc(OC)c(C(=O)COc2ccccc2C#N)c1	-5.5	8.0
CCC(=O)NC(C)Cc1c[nH]c2ccccc12 (stereo not given)	-0.8	11.0
Fc1cccc(N=Cc2ccc(Cl)c(Cl)c2)c1	2.9	x
COc1ccc(/C=C/C(=O)OC2CCOC2=O)cc1OC (stereo not given)	x	17.0
O=C(CCC(=O)c1ccccc1)Nc1ccccc1F	-0.1	-17.0
c1ccc(-c2csc(-c3ccc(-c4csnn4)cc3)n2)cc1	0.1	x
O=C(COc1ccc(-n2cnnn2)cc1)NCC(F)(F)F	x	-6.0
N/C(Cc1nc(-c2ccc(F)cc2)cs1)=N\O	-4.1	x
Oc1ccc2ccccc2c1C(N=Cc1ccccc1)c1ccccc1 (stereo not given)	-0.9	x
CCOC(=O)C1=C(C)N=c2s/c(=C\c3cc(OC)c(OC)cc3[N+](=O)[O-])c(=O)n2C1c1ccc(OC)c(OC)c1 (stereo not given)	0.7	x
O=C(NC1CC1)c1sccc1-c1ccccc1	x	6.0
CC(C)CCNC(=O)c1cc2oc3ccccc3c2n1C	x	-16.0
CSc1nc(/N=C/N(C)C)n2nc(-c3ccccc3)cc2n1	-2.8	x
CCC1CCC2(CC1)NC(CO)(CO)CO2 (stereo not given)	x	33.0
CC(=O)NC(C)c1nc(-c2ccccc2)no1 (stereo not given)	x	3.0
CC(C)c1ccc(N(C(=O)c2ccccc2)C2C=CS(=O)(=O)C2)cc1 (stereo not given)	-1.2	4.0
O=C(NCCN1CCOCC1)c1ccc(-n2cccn2)cc1	-1.0	x
(list continues)
SMILES	MgrA DNA FP	Sa helicase inh
COc1ccc(C2Nc3ccccc3C(=O)N2c2ccccc2)cc1CSc1nc2ccccc2s1 (stereo not given)	3.3	x
CC(C)Nc1nc(-c2ccccc2O)nc2ccccc12	-0.2	-66.0
COc1ccc(C(=O)Cn2ccnc2C(=O)N2CCN(c3ccccn3)CC2)cc1	-1.4	7.0
COc1ccc(CN2CCSCC2)cc1Br	0.1	x
CC(C)CNC(=O)c1cc(-c2ccc(Cl)cc2)on1	-0.6	14.0
NC(=O)COC(=O)c1ccccc1Br	x	-4.0
CN1CCN(c2cc(C(=O)c3ccccc3O)cn3c(=O)c4ccccc4nc23)CC1	x	6.0
CC(C)C(Nc1ccc(C(F)(F)F)cc1Cl)C(=O)O (stereo not given)	0.9	7.0
NC(=O)C1CCN(c2ccc(S(=O)(=O)N3CCCCC3)cn2)CC1	x	-9.0
O=C1/C(=C/c2ccc3c(c2)OCCO3)COc2ccccc21	x	19.0
Cn1c(COc2cccc3cccnc23)nnc1SCC(=O)c1ccccc1	x	-10.0

An excerpt (hit frequency here may not be typical).
